NPYLR7 agonist: agonists of mosquito NPYLR7 receptor, primary screen, cell-based, Aedes aegypti, calcium fluorescence, mosquito biting behavior | 270,000 compounds, 0.15% hits | HEK293T NPYLR7/Galpha15, GCaMP6s calcium fluorescence | activation, % at 10 µM | AID 1259423, 2018 | Aedes aegypti neuropeptide Y-like receptor 7 (NPYLR7); in the data active = activation above about 40%;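 also: 0% = vehicle and 100% = reference agonist at the receptor; some compounds past the cut are filed as inactive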
NPYLR7 agonist max-min: further read-out of NPYLR7 agonist, marked with its call; activation, %; measured here: Max-Min RFU normalised activation; some inactives read as strong as hits;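 span of the calcium signal over five minutes; 0% = vehicle and 100% = native peptide agonist; compound fluorescence can raise it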
Numbers without * were called inactive; & = joins results of further samples. Only part of the results is shown; the hit share may differ from the screen's.

The first 17 entries as a preview:
SMILES	NPYLR7 agonist	NPYLR7 agonist max-min
CC(=O)c1ccc(C(=O)N(Cc2cccnc2)c2nc3c(F)cc(F)cc3s2)cc1	-15	-6
COc1nc(OC)nc(Oc2cccc(-c3ccc(F)cc3)c2C(=O)O)n1	3	2
COc1ccc(C2=C(C(C)=O)Sc3nnc(-c4ccccc4)n3N2C(C)=O)cc1OC	6	5
COCc1ccc(CN2CCCC(CNS(=O)(=O)Cc3ccccc3)C2)o1 (stereo unspecified)	23	10
CCCCc1ccc(C(=O)N(CC(=O)N2CCc3sccc3C2c2ccc(Cl)cc2Cl)Cc2ccc(F)cc2)cc1 (stereo unspecified)	24	21
CNS(=O)(=O)c1ccc(CN(C)Cc2cccc3cnccc23)cc1	3	-3
O=C(CN1CCC(Cc2cccc(C(=O)O)c2)CC1)NCc1ccccn1	1	-1
COc1ccc(C2CC(=O)C3=C(C2)N=C(C)C(C#N)C3c2ccc(N(C)C)cc2)cc1 (stereo unspecified)	0	1
COc1ccc(CN(CC(O)COc2ccccc2C)C2CC2)cc1OC (stereo unspecified)	-11	-11
COc1ccc(CN(C(=O)c2ccc(F)cc2)C(C)c2ccccc2)cc1OCc1nc(CO)cs1 (stereo unspecified)	13	16
CCCCN(C)CCNC(=O)c1c(O)nc2scc(C)n2c1=O	-2	24
COc1ccc(OC)c(C2SCCN2C(=O)c2ccccc2Br)c1 (stereo unspecified)	9	10
COC(=O)CCCC(=O)NCC1Cc2cc(C(=O)OC)cc(Cl)c2O1 (stereo unspecified)	2	2
COc1ccccc1-c1nc2cccc(C)n2c1NC(C)(C)CC(C)(C)C	-5	-4
CCSc1nnc(SCC(=O)NC(=O)NC2CCCCC2C)s1 (stereo unspecified)	1	5
COc1cc(OC)cc(C(=O)N2CCCC(OCc3cc(F)ccc3F)C2)c1 (stereo unspecified)	-2	-1
O=C(Nc1cccc(N2CCCC2=O)c1)c1ccc(NC(=O)C2CC2)s1	-11	-9

The listing, from the first entry:
SMILES	NPYLR7 agonist	NPYLR7 agonist max-min
CC(=O)c1ccc(C(=O)N(Cc2cccnc2)c2nc3c(F)cc(F)cc3s2)cc1	-15	-6
COc1nc(OC)nc(Oc2cccc(-c3ccc(F)cc3)c2C(=O)O)n1	3	2
COc1ccc(C2=C(C(C)=O)Sc3nnc(-c4ccccc4)n3N2C(C)=O)cc1OC	6	5
COCc1ccc(CN2CCCC(CNS(=O)(=O)Cc3ccccc3)C2)o1 (stereo unspecified)	23	10
CCCCc1ccc(C(=O)N(CC(=O)N2CCc3sccc3C2c2ccc(Cl)cc2Cl)Cc2ccc(F)cc2)cc1 (stereo unspecified)	24	21
CNS(=O)(=O)c1ccc(CN(C)Cc2cccc3cnccc23)cc1	3	-3
O=C(CN1CCC(Cc2cccc(C(=O)O)c2)CC1)NCc1ccccn1	1	-1
COc1ccc(C2CC(=O)C3=C(C2)N=C(C)C(C#N)C3c2ccc(N(C)C)cc2)cc1 (stereo unspecified)	0	1
COc1ccc(CN(CC(O)COc2ccccc2C)C2CC2)cc1OC (stereo unspecified)	-11	-11
COc1ccc(CN(C(=O)c2ccc(F)cc2)C(C)c2ccccc2)cc1OCc1nc(CO)cs1 (stereo unspecified)	13	16
CCCCN(C)CCNC(=O)c1c(O)nc2scc(C)n2c1=O	-2	24
COc1ccc(OC)c(C2SCCN2C(=O)c2ccccc2Br)c1 (stereo unspecified)	9	10
COC(=O)CCCC(=O)NCC1Cc2cc(C(=O)OC)cc(Cl)c2O1 (stereo unspecified)	2	2
COc1ccccc1-c1nc2cccc(C)n2c1NC(C)(C)CC(C)(C)C	-5	-4
CCSc1nnc(SCC(=O)NC(=O)NC2CCCCC2C)s1 (stereo unspecified)	1	5
COc1cc(OC)cc(C(=O)N2CCCC(OCc3cc(F)ccc3F)C2)c1 (stereo unspecified)	-2	-1
O=C(Nc1cccc(N2CCCC2=O)c1)c1ccc(NC(=O)C2CC2)s1	-11	-9
Cc1ccc(-c2nc(OCC(C)C)nn2-c2ccc(NCC(O)COCc3ccccc3)cc2)cc1 (stereo unspecified)	-4	-5
O=C(c1cccnc1OCC(F)(F)F)N(Cc1ccccc1)C[C@@H]1CCC[C@@H]1O	4	4
O=C(NCCc1ccccn1)C1CCN(c2nc(-c3ccccc3)nc3c2CCC3)CC1	-6	-9
CN(C)S(=O)(=O)c1ccc(CN2CCN(c3ccccc3Cl)CC2)o1	2	1
NC(=O)c1ccsc1NC(=O)CN1CCCc2cccc(F)c21	2	2
O=C1C(=O)N(c2ncccn2)C(c2ccc([N+](=O)[O-])cc2)C1=C(O)c1ccc(F)cc1 (stereo unspecified)	4	3
O=C(NC(c1ccccc1)c1ccco1)C1CCN(CCN2C(=O)c3ccccc3C2=O)CC1 (stereo unspecified)	-14	-17
O=C1CCC(CCC(=O)N2CCC(c3nc4ccccc4o3)CC2)(Cc2ccc3c(c2)OCO3)N1 (stereo unspecified)	24	7
CC(C)c1ccc(CNc2nn[nH]n2)cc1	-3	27
Cc1sc2nc(CCc3ccccc3)nc(N3CCN(S(=O)(=O)c4cccc(C(F)(F)F)c4)CC3)c2c1C	0	0
Cc1cc2c(cc1C)NC(c1ccc3c(c1)OCO3)C1C(=O)CC(C)(C)CC1=N2 (stereo unspecified)	4	5
Cc1cc(Oc2cc(N3CCC(N4CCCCC4)CC3)ncn2)ccc1Cl	-7	3
CC1C(=O)N(c2ccc([N+](=O)[O-])cc2)CCN1C(=O)c1cccs1 (stereo unspecified)	6	6
CCc1c(C)nc(-c2ccc(C)cc2)nc1N1CCN(C(=O)c2ccc([N+](=O)[O-])cc2)CC1	-2	4
CC1CCCC(NC(=O)C2CCCN(c3cnccn3)C2)C1C (stereo unspecified)	-1	-3
NCCSc1ncc(-c2ccccc2)[nH]1	-2	1
CCOC(=O)CCCC(=O)Nc1ccc(-c2cccc(-c3ccc(OC)cc3)n2)cc1	-1	-1
COc1cccc(CN(CCN2CCOCC2)CC(O)COC(C)(C)C)c1OC (stereo unspecified)	26	33
Cn1c(=O)c2c(nc(CN3CCc4ccccc4C3)n2Cc2ccc(F)cc2)n(C)c1=O	-17	-18
CCOc1ccc(N2C(=O)CSC2c2cccc(NC(=O)COCc3ccccc3)c2)cc1 (stereo unspecified)	4	3
O=c1c2nnn(-c3ccc(Cl)cc3)c2ncn1Cc1ccccn1	3	2
CC(NC(=O)c1cc(COc2c(F)cccc2F)on1)c1ccccc1Cl (stereo unspecified)	8	7
Cc1cc2c(=O)n(C)c(SCC(=O)c3ccccc3)nc2s1	-6	-6
NC(=O)C1CCCN(C(=O)CNc2cccc3c2OCCO3)C1 (stereo unspecified)	-1	-4
COc1cc(C)ccc1S(=O)(=O)N1CCc2nc(C)n(C)c(=O)c2CC1	2	0
Cc1ccccc1Nc1nc(NC(C)(C)C)nc(N2C[C@@H]3C[C@H]2CN3)n1	2	-1
CC(C)n1c(SC2CCOC2=O)nnc1N(C)C (stereo unspecified)	3	0
COc1ccc(NS(=O)(=O)c2ccc3oc(SCCOc4ccc(OC)cc4)nc3c2)cc1	13	2
Cn1c(=O)[nH]c(=O)c2c1nc(N1CCCCCC1)n2CCCSc1nc2ccccc2s1	10	5
C=CCN(CC#Cc1ccccc1)Cc1cnc(C)[nH]1	5	2
NC(=O)C1(N2CCCCC2)CCN(C(=O)c2sc3ncccc3c2-n2cccc2)CC1	-4	-7
O=C(CCC(=O)N1CCC(c2ccccc2)=N1)OCc1nc2ccccc2c(=O)[nH]1	-2	-2
Cn1nnc(NC(=O)c2ccc(C#N)cc2F)n1	-3	-3
COCc1cc(C)nc(OCC(=O)N/N=C\c2c(OC)ccc3ccccc23)c1C#N	-9	-14
Cn1ncc(N2CCC(CNC(=O)c3n[nH]c4c3CCC4)C2)cc1=O (stereo unspecified)	10	-1
CCOC(=O)C1=C(C)N=c2s/c(=C\c3ccccc3Cl)c(=O)n2C1c1ccccc1 (stereo unspecified)	5	18
COc1ccccc1C1CN(CCNC(=O)CSc2nc(C)cs2)Cc2ccccc2O1 (stereo unspecified)	18	5
COc1ccc(C(=O)Nc2cc(C)nn2C)cc1Br	1	-3
O=C(Cn1c2ccccc2c(=O)c2ccccc21)NC(c1ccccc1)c1ccccc1	0	-6
O=C(NCc1ccccn1)c1ccc(S(=O)(=O)N(Cc2ccco2)C2CC2)o1	-8	-15
O=c1oc2ccc(Cl)cc2cc1-c1csc(Nc2ccc(Cl)cc2Cl)n1	2	-2
CCOC(=O)CN1CCN(c2ccc(Oc3ccccc3)cc2)C(=O)C1C (stereo unspecified)	-2	3
COC(=O)c1cnn(-c2ncnc3sc4c(c23)CCCC4)c1N	-4	-6

More compounds:
SMILES	NPYLR7 agonist	NPYLR7 agonist max-min
Fc1ccc(Nc2nc(N3CCN(Cc4ccccc4)CC3)nc3nccnc23)cc1	2	1
Cc1cccc(C(=O)N(CCN(C)C)Cc2ccsc2)c1	-5	-5
CN(C(=O)c1cc2c(=O)n3ccccc3nc2n1C)C1CCCCC1	5&1	8&-1
Cn1cc(C2c3nc[nH]c3CCN2Cc2ccccc2-c2ccccc2)cn1 (stereo unspecified)	10	-2
Cc1ccc(-c2nnc3n2N=C(C24CC5CC(CC(C5)C2)C4)CS3)cc1	-2	-5
Cc1c(C)c2cc(-c3ccn[nH]3)c(O)c(C)c2oc1=O	-7	-12
Cc1nc(NC(=O)NCc2cccc(OC(F)(F)F)c2)nn1C(C)C	1	0
CCOc1ccc(-c2cc3c(SCC#N)nccn3n2)cc1Cl	3	1
N#Cc1ccc(C2C(C(=O)O)CCC(=O)N2CC2CCCO2)cc1 (stereo unspecified)	-24	-26
O=S(=O)(NCCCC1CCCCC1)N1CCCCCC1	-12	-11
CC1(C)O[C@@H]2C[C@@](OCc3cccc(C(F)(F)F)c3)(C(=O)NN3CCOCC3)CC(OCc3ccccc3C#N)[C@@H]2O1 (stereo partly specified)	4	8
CCOC(=O)c1c(C)n(-c2ccccc2)c2ccc(OC(=O)c3cccc(C)c3)cc12	-1	-6
COc1ccc2c(c1)CCN2C(=O)c1cnc(-c2ccsc2)s1	-4	69
COC(=O)c1ccc(N2CCN(C)CC2)c(NC(=O)c2cccc(C)c2OC)c1	0	-4
CCn1c(=O)n(CC)c2cc(N)c(C)cc21	-6	-8
Cc1ccc(C2(O)CCN(Cc3ccc(-c4ccccc4Cl)o3)CC2)nc1	2	-3
O=C(NCCOc1ccccc1)c1ccc(-c2cc(-c3cccc4ccccc34)[nH]n2)cc1	-3	6
CCOC(=O)c1c(N)nn(C(=O)C(C)(C)C)c1-c1ccccc1	-14	-21
CCN(c1ccc(Nc2cc(Cl)nc(N)n2)cc1)C(C)C	7	3
Cc1nnsc1CNc1nc(-c2cccnc2)nc2c1cnn2C	4	3
O=C(Nc1nnc(SCc2ccccc2Cl)s1)c1cccc([N+](=O)[O-])c1	23	18
COc1cccc(N2C(=O)CSC2c2cccc(NC(=O)COc3ccc(Cl)cc3)c2)c1 (stereo unspecified)	-3	0
CC1CC1C(=O)Nc1ccc(C(=O)NC2CCN(C)CC2)cc1 (stereo unspecified)	0	0
CC1(C(=O)NS(=O)(=O)c2cccs2)CCN1C(=O)Cc1ccsc1 (stereo unspecified)	-3	-5
Cc1ccsc1S(=O)(=O)N1CCC2(CCCN(C)C2=O)C1 (stereo unspecified)	-8	-6
Nc1cc(-c2ccccc2)nn(Cc2cccc(F)c2)c1=O	0	0
CCn1ncc(Cl)c1C(=O)N1CCn2nc(C(=O)NC3CC3)cc2C1	3	-9
OCc1ccc(CN2Cc3[nH]cnc3C[C@H]2c2nc(-c3ccc(F)cc3)no2)o1	-7	-14
Cc1nc2n(n1)C(=O)C(C(c1cccc(Br)c1)N1CCC3(CC1)OCCO3)S2 (stereo unspecified)	2	-1
O=C(CSc1nnc(C2CC2)n1C1CC1)c1ccc(CC(=O)N2CCOCC2)s1	0	10
CCCN1CCC(C(=O)NC(c2ccc(Cl)cc2)c2cnccn2)CC1 (stereo unspecified)	23	9
CC12CCC(=O)N1C(C(=O)OCC(=O)C13CC4CC(CC(C4)C1)C3)CS2 (stereo unspecified)	2	11
COc1ccccc1C(=O)N1CCN(C(C(=O)NCCN2CCCCC2)C2CCCC2)CC1 (stereo unspecified)	-6	1
CCc1cnc(C)nc1N1CCCC(N2CCN(c3ccccc3C)CC2)C1 (stereo unspecified)	17	5
O=C(O)CCc1n[nH]c(=S)[nH]c1=O	6	5
O=C(CN1CCN(c2nc(C3CCCCC3)nc3sc4c(c23)CCCC4)CC1)N1CCOCC1	6	12
COc1cc(C=CC(=O)N2CCc3sccc3C2)cc(Cl)c1OC(C)C	4	5
COc1ccc(-n2c(/C=C/N(C)C)c([N+](=O)[O-])c3ccc(O)c(CN(C)C)c32)cc1	3	1
CC(C)C(C(=O)NCc1ccc(S(N)(=O)=O)s1)c1ccc(Cl)cc1 (stereo unspecified)	5	3
Cc1c(CN(C)C2CCC3(CCNCC3)CC2)cnn1C	-1	-1
COc1ccc2nc(NC(=O)/C=C/c3ccc(Br)cc3)sc2c1	-6	-11
Cc1cccc(Cn2c(=O)n(Cc3ccncc3)c(=O)c3ncccc32)c1	6	2
CC(=O)Nc1ccc(S(=O)(=O)N2CCN(c3nc(-c4cccc(F)c4)nc(C)c3Cc3ccccc3)CC2)cc1	5	15
c1nc2c([nH]1)CCNC2c1cc(CN2CCCCC2)cs1 (stereo unspecified)	3	1
CC(Sc1n[nH]c(=O)n1-c1ccccc1)C(=O)Nc1nccs1 (stereo unspecified)	1	0

Overlap with the part before: 2 entries; new compounds follow.
SMILES	NPYLR7 agonist	NPYLR7 agonist max-min
c1nc2c([nH]1)CCNC2c1cc(CN2CCCCC2)cs1 (stereo unspecified)	3	1
CC(Sc1n[nH]c(=O)n1-c1ccccc1)C(=O)Nc1nccs1 (stereo unspecified)	1	0
COCCn1c(C(=O)Nc2ccc(C)c(Cl)c2)cc2c(=O)n(C)c(=O)n(C)c21	-1	-2
CC(C)C1CN(c2ccc(C(=O)N3CCOCC3)cn2)CCCN1CC1CC1 (stereo unspecified)	5	3
CCOc1cccc(C(=O)N2CCC(n3cnc4ccccc43)CC2)c1	2	-2
Cc1cc(C)n(-c2cccc(CN(C)Cc3nc(-c4ccccn4)no3)c2)n1	14&-8	-1&-10
COc1cc(-c2onc(C)c2C(=O)NCc2ccc(C(F)(F)F)cc2)cc(OC)c1OC	0	9
